# CtBP-E1A inh – qHTS Assay for Inhibitors of the CtBP/E1A Interaction. CtBP / adenovirus E1A interaction (AlphaScreen). activity change, % (test concentration not listed). AlphaScreen GST-E1A/His-CtBP binding, 1536-well; stronger effect = lower value; control for the full effect not named in the record. hit rate 0.49% among 340,000; in the data active means activity change below about -65%; inconclusive means about -30% to -65%; inactive means above about -30%; note: % is set by controls: 0 for no effect and ±100 for the full control effect; compound concentration not given in the record
#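 Protein mix (5X: 125 nM each GST-E1A, His-CtBP) was incubated with pinned compound 2 h at 37 deg C in dark, in 50 mM Tris pH 8.0 buffer with 300 mM NaCl. Glutathione donor and nickel acceptor beads followed; AlphaScreen signal read after 1 h.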
# PINK1 modulator – A Quantitative High throughput Screen to Identify Chemical Modulators of PINK1 Expression. hit rate 0.2% among 410,000. AID 624263, 2012. PINK1 immunofluorescence, high-content cytometry, 24 h. Potency, µM (highest dose often 76.6 µM), inactives show at the top dose activation (PINK1 increase), hits mostly activators; active = well fitted activation curve with a large enough effect; inconclusive = small, poorly fitted or top-dose-only effect; inactive = flat fitted curve, though single readings scatter; cell line not stated here;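 note: potency is the fitted concentration of half-maximal effect; % of control where 0% means no effect; nearly all actives have a fitted effect of over 65% in size; a mitochondrial uncoupler was the plate control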
#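 Cells are seeded, rested 12 hours, then given compound at five concentrations or DMSO for 24 hours. After fixation, blocking and antibody staining, PINK1 amount and mitochondrial localization are scored; CCCP serves as control.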
# TRPML1 inh – qHTS for Inhibitors of the Human Mucolipin Transient Receptor Potential 1 (TRPML1); TRPML1-inducible cells, Ca2+ dye fluorescence, FDSS; stronger effect = lower value; inhibition of EC80 agonist-evoked calcium signal; AID 624415, 2012; activity change, negative = inhibition, % (no concentration beside the values); Mucolipin-1 (Homo sapiens), Q9GZU1; hit rate 0.02% among 390,000; in the data active means activity change below about -50%; inconclusive means about -30% to -50%; inactive means above about -30%;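 note: stimulus is agonist 54-4 at its EC80 concentration; % is set by controls: 0 for no effect and ±100 for the full control effect; compound concentration not given in the record; the text of the record puts the active cut at -80%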
#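 TRPML1-DL cells, Tet-induced overnight (~16 h, 37 °C) at 1,500 cells/well, were loaded with Ca8 no-wash dye plus quencher for 45-90 min at room temperature. Compounds were pinned during FDSS kinetic reading; agonist 54-4 at EC80 (4 uM final) then added.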
# TRPML1 agonist – qHTS for Agonists of the Human Mucolipin Transient Receptor Potential 1 (TRPML1); Mucolipin-1 (Homo sapiens), Q9GZU1; TRPML1-expressing cells, Ca2+ dye fluorescence, FDSS; host cell line not named in the record; reference of the full effect not given here; activation, % (no concentration beside the values); hit rate 0.12% among 410,000; AID 624414, 2012; in the data active = activation above about 50%; inconclusive = about 30% to 50%; inactive = below about 30%; note: 0% is about no effect; the text of the record puts the active cut at 80%
#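 Tet-induced TRPML1-DL cells, 1,500 per well, cultured overnight, were loaded with a no-wash Ca2+ dye for 45–90 min. Calcium fluorescence was recorded on the FDSS for 110 s after compound addition, before the EC80 agonist (4 uM 54-4) was added.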
# Six1-Eya2 inh – qHTS Assay for Inhibitors of the Six1/Eya2 Interaction; Homeobox protein SIX1 (Homo sapiens) + Protein phosphatase EYA2 (Homo sapiens), …; hit rate 0.56% among 360,000; AlphaScreen GST-Six1/His-Eya2 binding, biochemical; stronger effect = lower value; control for the full effect not named in the record; activity change, % (test concentration not listed); AID 651725, 2012; in the data active = activity change below about -65%; inconclusive = about -30% to -65%; inactive = above about -30%; note: % is set by controls: 0 for no effect and ±100 for the full control effect; compound concentration not given in the record
# Target sequence (O00167 whole entry, looked up): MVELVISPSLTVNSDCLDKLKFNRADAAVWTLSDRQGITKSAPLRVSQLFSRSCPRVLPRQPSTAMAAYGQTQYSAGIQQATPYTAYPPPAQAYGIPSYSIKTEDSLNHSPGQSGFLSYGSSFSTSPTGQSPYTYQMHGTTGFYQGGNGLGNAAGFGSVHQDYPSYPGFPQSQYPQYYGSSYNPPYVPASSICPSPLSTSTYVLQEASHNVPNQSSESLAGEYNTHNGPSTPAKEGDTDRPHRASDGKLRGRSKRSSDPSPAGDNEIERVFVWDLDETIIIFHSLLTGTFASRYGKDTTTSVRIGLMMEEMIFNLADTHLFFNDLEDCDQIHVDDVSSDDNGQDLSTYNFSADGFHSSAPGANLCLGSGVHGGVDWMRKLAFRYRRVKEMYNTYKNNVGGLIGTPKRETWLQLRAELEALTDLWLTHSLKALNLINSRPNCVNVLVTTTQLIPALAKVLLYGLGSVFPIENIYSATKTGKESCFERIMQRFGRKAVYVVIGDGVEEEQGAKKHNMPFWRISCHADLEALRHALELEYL
# Target sequence (Q15475 whole entry, looked up): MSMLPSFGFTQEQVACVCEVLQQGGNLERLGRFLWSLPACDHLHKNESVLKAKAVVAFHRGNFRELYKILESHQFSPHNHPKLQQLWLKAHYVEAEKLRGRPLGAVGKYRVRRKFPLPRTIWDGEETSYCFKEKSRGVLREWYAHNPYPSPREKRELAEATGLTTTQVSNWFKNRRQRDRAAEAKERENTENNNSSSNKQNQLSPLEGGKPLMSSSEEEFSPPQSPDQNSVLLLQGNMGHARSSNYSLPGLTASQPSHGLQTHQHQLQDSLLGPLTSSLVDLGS
#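 Homogeneous AlphaScreen proximity assay pairing GST-Six1 with His-tagged Eya2 (added as 5X mix: 250 nM and 500 nM) in 50 mM Tris pH 8.0, 300 mM NaCl, 1 mM TCEP. Glutathione donor and nickel acceptor beads; 1 h, 37 °C, dark.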
# D2 ag – Beta-Arrestin HTS for Positive Allosteric Modulators of the Human D2 Dopamine Receptor: Agonists | hit rate 0.084% among 360,000 | activation, % (concentration not given with the values) | AID 624465, 2012 | DiscoveRx PathHunter D2 beta-arrestin, luminescence, 90 min; 100% = 57 uM dopamine signal; in the data active = activation above about 40%; inconclusive = about 15% to 40%; inactive = below about 15%; note: compound concentration not given in the record; the text of the record calls up to 30% inactive
#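 DiscoveRx PathHunter D2 beta-arrestin cells (2,100/well) attached overnight, then compound-stimulated 90 min at 37 C in HBSS/10 mM HEPES/0.1% Tween-20 buffer; beta-galactosidase complementation read by luminescence after 1 h at ambient temperature. Dopamine 57 uM final (EC100) as control.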
# An asterisk follows results filed as active; u = inconclusive; x = not tested or not shown; & = joins results of further samples; [ ] = another dose, or the depositor's remark. Some of the compounds tested; count on the stated rates, not on these rows.
# Start of the listing, in advance, three compounds:
No. | molecule | CtBP-E1A inh | PINK1 modulator | TRPML1 inh | TRPML1 agonist | Six1-Eya2 inh | D2 ag
1 | NP(=O)(OCCCc1ccccc1)Oc1ccc(Cl)cc1 (stereo not drawn) | 3 | 2.4% | 26 | -1.3 | 2 | 2.4
2 | O=c1[nH]c(=O)n(Cc2ccc(F)cc2)c(O)c1/C=N/Nc1ccccc1 | -3 | 0.7% | -6 | 1.2 | -1 | 10.0
3 | Cc1ccc2c(c1)C1CN(C)CCC1N2C(=S)Nc1cccnc1 (stereo not drawn) | 7 | 2.4% | -2 | -0.3 | 3 | -4.3

# This part in full, previewed entries included:
No. | molecule | CtBP-E1A inh | PINK1 modulator | TRPML1 inh | TRPML1 agonist | Six1-Eya2 inh | D2 ag
1 | NP(=O)(OCCCc1ccccc1)Oc1ccc(Cl)cc1 (stereo not drawn) | 3 | 2.4% | 26 | -1.3 | 2 | 2.4
2 | O=c1[nH]c(=O)n(Cc2ccc(F)cc2)c(O)c1/C=N/Nc1ccccc1 | -3 | 0.7% | -6 | 1.2 | -1 | 10.0
3 | Cc1ccc2c(c1)C1CN(C)CCC1N2C(=S)Nc1cccnc1 (stereo not drawn) | 7 | 2.4% | -2 | -0.3 | 3 | -4.3
4 | Cc1ccc(N=C(N(C)C)P(=O)(N(C)C)N(C)C)cc1 | 4 | 0.0% | -22 | -0.3 | 6 | -0.2
5 | O=C1NCN(c2ccccc2)C12CCN(C(c1ccccc1OC(F)(F)F)c1nnnn1-c1ccc3c(c1)OCCO3)CC2 (stereo not drawn) | -10 | 0.5% | x | 0.0 | -16 | 3.2
6 | COC(=O)C1=C(c2cccc(OCc3ccccc3)c2)C[C@@H]2CC[C@H]1N2C(=O)NCc1cc(C)oc1C(F)(F)F | 0 | 0.7% | 5 | 2.8 | -12 | x
7 | O=C(c1cccc2ccccc12)C1CCCN(Cc2ccon2)C1 (stereo not drawn) | 1 | 1.7% | -11 | 1.0 | 0 | -1.8
8 | CCOP(=S)(OCC)Oc1cc(C)nc(C(C)C)n1 | 7 | 2.2% | 22 | 1.0 | 1 | -4.1
9 | CCc1nnc(NC(=O)CCc2nc(C3=CCN(C)CC3)no2)s1 | 9 | 1.1% | -9 | 0.1 | 1 | -4.2
10 | CN(C)C(=O)Oc1ccc(Br)cc1C(=O)Nc1ccc(F)c(Cl)c1 | 6 | u | 31 | -0.3 | 4 | -5.6
11 | O=C1NC(=O)C(=Cc2ccc(-c3ccc(Cl)cc3)o2)C(=O)N1 | 9 | 0.7% | 0 | -0.5 | 7 | -1.4
12 | COc1ccc(C(=O)C(C)(C)NO)cc1 | 18 | -3.1% | 65 | 0.0 | -11 | 11
13 | CN1CCN(c2ccc([N+](=O)[O-])c(N)c2)CC1 | -1 | -1.1% | -9 | 0.6 | 5 | -4.8
14 | CC(C)C(=O)Nc1nnc(CCN(CCc2nnc(NC(=O)C(C)C)s2)[N+](=O)[O-])s1 | -6 | -0.2% | 23 | 2.1 | -3 | -3.4
15 | CC(=O)Nc1ccc(CC(=O)N2CCN(Cc3ccccc3)CC2)cc1 | -10 | -0.9% | 1 | -1.1 | -24 | -2.0
16 | CN1C(=O)C(C2c3ccccc3C(=O)N2Cc2ccc([N+](=O)[O-])cc2)C(=O)N(C)C1=O (stereo not drawn) | 27 | -4.7% | -8 | -0.3 | 16 | -3.9

# Sorted by count of non-hydrogen atoms (falling): some entries from above.
No. | molecule | CtBP-E1A inh | PINK1 modulator | TRPML1 inh | TRPML1 agonist | Six1-Eya2 inh | D2 ag
15 | CC(=O)Nc1ccc(CC(=O)N2CCN(Cc3ccccc3)CC2)cc1 | -10 | -0.9% | 1 | -1.1 | -24 | -2.0
9 | CCc1nnc(NC(=O)CCc2nc(C3=CCN(C)CC3)no2)s1 | 9 | 1.1% | -9 | 0.1 | 1 | -4.2
13 | CN1CCN(c2ccc([N+](=O)[O-])c(N)c2)CC1 | -1 | -1.1% | -9 | 0.6 | 5 | -4.8
12 | COc1ccc(C(=O)C(C)(C)NO)cc1 | 18 | -3.1% | 65 | 0.0 | -11 | 11

# Going on with the list:
No. | molecule | CtBP-E1A inh | PINK1 modulator | TRPML1 inh | TRPML1 agonist | Six1-Eya2 inh | D2 ag
17 | CN(C)C(=O)Oc1ccc(OC(=O)c2ccccc2)cc1 | 7 | 3.4%[38.3 µM] | -4 | -0.1 | 0 | 2.4
18 | O=C(NN=Cc1ccc(N(CCCl)CCCl)cc1)c1cccc([N+](=O)[O-])c1 | -28 | 6.2% | -10 | 1.1 | -17 | -4.3
19 | O=C(COc1ccc(Cl)cc1)NC1CN2CCC1CC2 (stereo not drawn) | 3 | 3.0% | 4 | -0.6 | 2 | 2.4
20 | O=c1cccc2n1CC1CC2CN(S(=O)(=O)c2ccc(F)cc2)C1 (stereo not drawn) | 4 | 0.7% | -9 | 0.0 | 7 | -1.9
21 | CNC(C)Cc1ccccc1 (stereo not drawn) | 2 | -0.6% | -6 | -0.6 | 4 | 1.6
22 | Cc1ccc(S(=O)(=O)N(C)N=O)cc1 | 4 | 3.7% | -7 | 0.1 | 6 | -3.0
23 | COC(=O)c1cn(C(=O)c2cccc3ccccc23)c2ccccc12 | x | 8.2% | 7 | 1.7 | -1 | 3.5
24 | CN(C)CC1CSCCC1(O)c1cccc(Cl)c1 (stereo not drawn) | 6 | -1.3% | 4 | 0.3 | 5 | -0.9
25 | CCOC(=O)c1ccc(N2C(=O)CC(N3CC=C(c4ccc(F)cc4)CC3)C2=O)cc1 (stereo not drawn) | -4 | 1.3% | -4 | -0.3 | -11 | -0.9
26 | N/C(=N\N=C/c1ccc(-c2ccc(O)c(C(=O)O)c2)o1)N[N+](=O)[O-] | u | -3.8%[38.3 µM] | 18 | -0.6 | u | -3.2
27 | COc1nc2ccccc2c(=O)n1-c1ccc(Cl)cc1 | 9 | 0.2% | 7 | -0.3 | 0 | -3.1
28 | CCC(N)Cc1c[nH]c2ccccc12 (stereo not drawn) | x | 1.2% | 0 | -0.4 | -4 | 1.0
29 | CCn1ccnc1CN1CCCC(C(=O)c2cc(Cl)ccc2OC)C1 (stereo not drawn) | 28 | -2.3% | -14 | 1.2 | 0 | -1.4
30 | CC(=O)O[C@H]1C[C@@H]2CC[C@@H]3[C@H](CC[C@]4(C)C(=O)CC[C@@H]34)[C@@]2(C)C[C@@H]1OC(C)=O | 2 | 0.0% | 12 | -0.3 | 3 | -4.3
31 | COc1ccc(C(CNC(=O)Cc2ccc(Cl)c(Cl)c2)N(C)C)cc1 (stereo not drawn) | 9 | -2.9% | -20 | 0.8 | 3 | -1.5
32 | O=Cc1cn(Cc2ccc(F)cc2)c2ccccc12 | 0 | 0.4% | -1 | -0.4 | 7 | -2.8
33 | Cc1sc2ncn(CC(=O)NCCCC(=O)N3CCC4(CC3)OCCO4)c(=O)c2c1C | 11 | -4.5% | 0 | -0.7 | 0 | -2.7
34 | CCOC(=O)c1cccc(NC(=O)c2c(O)[nH]c(=O)[nH]c2=O)c1 | -9 | 1.1% | 3 | -0.4 | -3 | -1.9
35 | COC(=O)C1=C(c2ccc(F)cc2OCc2ccccc2)C[C@@H]2CC[C@H]1N2C(=O)NCc1ccc2c(c1)OCO2 | -15 | 0.4% | 50 | 2.0 | -11 | -3.7
36 | Cc1cc(OC(=O)CCNC(=O)OC(C)(C)C)c2c3c(c(=O)oc2c1)CCC3 | -9 | 1.2%[38.3 µM] | -9 | 1.6 | -3 | -1.3
37 | O=S(=O)(c1ccc(F)cc1)N1CCCC1c1cccnc1 (stereo not drawn) | x | -0.6% | -1 | 0.3 | -2 | -2.2
38 | CN(C)c1ccc(C=C2C(=O)NC(=O)NC2=O)cc1 | -1 | 0.2% | 5 | -0.3&-0.1 | 1 | -3.2
39 | Cc1c(C(=O)Nc2ccccc2)cc(-c2ccccc2)n1CCCN1CCOCC1 | -1 | 0.5% | 5 | -0.3 | -7 | -6.2
40 | COCCCn1c(N)c(C(=O)Nc2sc3c(c2C(=O)OC)CCCC3)c2nc3ccccc3nc21 | 8 | x | 7 | -0.1 | -21 | 0.6
41 | COCCOC(=O)C1=C(C)OC(N)=C(C(=O)OC)C12C(=O)Nc1ccccc12 (stereo not drawn) | 3 | -0.9% | -3 | 0.0 | 1 | 1.3
42 | Cc1c(NC(=O)C(C)OC(=O)Cc2ccccc2)c(=O)n(-c2ccccc2)n1C (stereo not drawn) | 8 | -3.0%[38.3 µM] | -4 | 2.1 | 3 | -1.1
43 | CN=C1CN(O)C(c2ccccc2)=c2cc(Cl)ccc2=N1 | 1 | 1.7% | -11 | -0.7 | 3 | -4.3
44 | O=[N+]([O-])c1ccc(Cl)cc1 | 5 | 0.0% | -9 | -0.5 | 5 | 2.3
45 | CCOC(=O)C1(c2ccccc2)CCN(CC(=O)c2ccc(NC(C)=O)cc2)CC1 | -1 | 0.5% | 28 | -0.1 | 4 | -6.4
46 | O=C1NCN(c2ccccc2)C12CCN(C(c1cccc3ccccc13)c1nnnn1C1CCCC1)CC2 (stereo not drawn) | u | -0.9% | x | -0.1 | -7 | -6.0
47 | O=C(N/N=C/c1c(O)n(C2CC2)c(=S)[nH]c1=O)c1ccccc1 | -93* | 1.0% | 2 | -1.0 | -89* | -4.5
48 | COc1cc2c(cc1OC)[C@@H]1C(=O)c3ccc4c(c3O[C@@H]1CO2)C[C@H](C(C)C)O4 | -13 | 29% | 29 | 2.8 | -23 | 6.7
49 | CCNCCNc1ccc([N+](=O)[O-])c2cccnc12 | -17 | 0.0% | 18 | 0.3 | -12 | -3.0
50 | CCCC(CCC)C(=O)OC[N+](C)(C)CCOC(=O)C(O)(c1ccccc1)C1CCCC1 (stereo not drawn) | x | 1.4% | -8 | 0.6 | -1 | -5.4
51 | O=C(O)C1C2CC3CC(C2)CC1(n1ncc(N2CCC4(CC2)OCCO4)c(Cl)c1=O)C3 (stereo not drawn) | 5 | 0.5% | 0 | 0.6 | 4 | -3.0
52 | CN1CCN(Cc2ccc(N)cc2)CC1 | 7 | -1.1% | 6 | 2.6 | -1 | -8.9
53 | COc1ccc(C(c2nnnn2-c2c(C)cccc2C)N2CCC(n3c(=O)[nH]c4ccccc43)CC2)cc1 (stereo not drawn) | -13 | -0.9% | x | 0.6 | -11 | 6.8
54 | COC(=O)C1=C(c2ccc(Cl)c(C(F)(F)F)c2)C[C@@H]2CC[C@H]1N2C(=O)NCCO | 3 | -0.2% | 0 | -0.3 | -1 | -0.9
55 | CCCCn1c(O)c(C(C)=NCc2ccc3c(c2)OCO3)c(=O)[nH]c1=O | 2 | 1.9% | -18 | 2.6 | 23 | -4.8
